From PubChem
NPYLR7 ag – activates Aedes aegypti NPYLR7 receptor | HEK293T NPYLR7/Galpha15, GCaMP6s calcium fluorescence | activation, % at 10 µM | 270,000 tested, 0.15% active | AID 1259423; in the data active means activation above about 40%;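 further: 0% = vehicle and 100% = reference agonist at the receptor; some compounds past the cut are filed as inactive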
NPYLR7 ag max-min – also measured in NPYLR7 ag; calls as there; activation, %; measured here: Max-Min RFU normalised activation; some inactives read as strong as hits;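 span of the calcium signal over five minutes; 0% = vehicle and 100% = native peptide agonist; compound fluorescence can raise it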
The depositor's hits bear a star; & = joins results of further samples. An excerpt; count on the stated rates, not on these rows.

The first seven compounds (preview)
SMILES | NPYLR7 ag | NPYLR7 ag max-min
COCCCNC(=O)C(NC(=O)c1ccccc1C)C1CCN(C(=S)Nc2ccc(F)cc2)CC1 (stereo not given) | 8.3 | 17.1
O=C(c1cc(-c2cccc(Br)c2)nc2ccccc12)N1CCC2(CC1)C(=O)NCN2c1ccccc1 | 5.8 | 3.5
CC(C)(C)c1cc(Oc2ccccc2Cl)nc(SCc2cccc(Cl)c2)n1 | 1.8 | 4.6
CN(C(=O)CCN1Cc2ccccc2C1=O)C1CCCN(CCc2ccccc2)C1 (stereo not given) | -0.9 | -3.1
N#CCN(CC(=O)Nc1sccc1C(N)=O)C1CCCC1 | 1.4 | 13.0
Cc1c(-c2ccccc2)c(=O)oc2c3c(ccc12)OCN(C1CCS(=O)(=O)C1)C3 (stereo not given) | 0.5 | 4.4
CC(C)CSc1nc2c(c(=O)[nH]c(=O)n2C)n1CCCc1ccccc1 | 1.7 | 8.7

Main list, from the start:
SMILES | NPYLR7 ag | NPYLR7 ag max-min
COCCCNC(=O)C(NC(=O)c1ccccc1C)C1CCN(C(=S)Nc2ccc(F)cc2)CC1 (stereo not given) | 8.3 | 17.1
O=C(c1cc(-c2cccc(Br)c2)nc2ccccc12)N1CCC2(CC1)C(=O)NCN2c1ccccc1 | 5.8 | 3.5
CC(C)(C)c1cc(Oc2ccccc2Cl)nc(SCc2cccc(Cl)c2)n1 | 1.8 | 4.6
CN(C(=O)CCN1Cc2ccccc2C1=O)C1CCCN(CCc2ccccc2)C1 (stereo not given) | -0.9 | -3.1
N#CCN(CC(=O)Nc1sccc1C(N)=O)C1CCCC1 | 1.4 | 13.0
Cc1c(-c2ccccc2)c(=O)oc2c3c(ccc12)OCN(C1CCS(=O)(=O)C1)C3 (stereo not given) | 0.5 | 4.4
CC(C)CSc1nc2c(c(=O)[nH]c(=O)n2C)n1CCCc1ccccc1 | 1.7 | 8.7
O=C(Cc1cc(-c2ccccc2)on1)Nc1cnn(CC(F)F)c1 | -0.9 | 0.1
CCOC(=O)N1CCC(NC(=O)C(=O)Nc2ccc(OC)c(Cl)c2)CC1 | 6.9 | 8.5
CC(Cn1ccnc1)NC(=O)N(Cc1ccoc1)C1CCCCC1 (stereo not given) | 4.6 | 3.7
COc1ccccc1-c1cnn2c(N3CCN(c4cccc(C)n4)CC3)cc(C)nc12 | 5.5 | 5.3
Cc1cccc(NC(=O)NCCS(=O)(=O)c2c(C)n(C)c3ccccc23)c1 | 3.1 | 10.8
O=C(NCCCn1cccn1)c1ccc(OC2CCN(Cc3ccccn3)CC2)cc1 | -2.1 | -3.9
Cn1c(=O)n(C)c2cc(NS(C)(=O)=O)c(NCc3ccccc3)cc21 | -10.8 | -18.9
O=C1NCCN(C(=O)c2cc(C3CC3)[nH]n2)C1c1cccc(F)c1 (stereo not given) | 2.5 | 1.6
CCc1ncc(CN2CCC(CNC(=O)C3CCCCC3)C2)cn1 (stereo not given) | 11.6 | 9.4
CN(Cc1ccccc1NC(=O)C1Cc2ccccc2S1)C1CCCCC1 (stereo not given) | -3.1 | -4.7
O=C1CCC(C(=O)N(Cc2ccco2)C2(C(=O)NC3CCCC3)CCCCC2)N1 (stereo not given) | 1.7 | -1.2
Cc1ccc(CC(=O)NC2(c3ccc(Br)cc3)CC2)cn1 | -6.3 | -6.4
CN(C(=O)c1cc2ccccc2s1)C1CCCN(C2Cc3ccccc3C2)C1 (stereo not given) | 17.2 | 8.2

As a working copy, some entries already given:
SMILES | NPYLR7 ag | NPYLR7 ag max-min
Cc1ccc(CC(=O)NC2(c3ccc(Br)cc3)CC2)cn1 | -6.3 | -6.4
CN(C(=O)c1cc2ccccc2s1)C1CCCN(C2Cc3ccccc3C2)C1 (stereo not given) | 17.2 | 8.2

(further entries)
SMILES | NPYLR7 ag | NPYLR7 ag max-min
Cc1cc(C)n2nc(SCc3cc4c(cc3Br)OCO4)nc2n1 | 0.6 | 3.5
Cc1nn(-c2ccccc2)c2c1C(O)n1c(nc3ccccc31)S2 (stereo not given) | 2.2 | -0.1
O=C(Nc1c(Cl)cccc1Cl)N1CCC2(CC1)SCCN2C(=O)/C=C/c1ccccc1 | 11.2 | 8.8
CCCN(CCC)C(=O)c1cc(-c2ccc(OC)cc2)nc2cc(-c3ccccc3)nn12 | 3.4&19.1 | 1.3&17.9
O=C(NCCC1=CCCCC1)c1ccc(CSc2ncn[nH]2)o1 | -1.2 | -2.4
Cc1nccc(C(=O)Nc2ccc3c(c2)CCCN3C)n1 | -19.0 | -20.8
O=C(NNc1nc(-c2ccccc2)c2cc(Br)ccc2n1)C12CC3CC(CC(C3)C1)C2 | 6.4 | 8.9
COc1cccc(C(=O)CSc2nnc(C3CC3)n2-c2ccc(C)cc2)c1 | -2.5 | -1.0
Cc1cccc2c(=O)n(CCC(=O)NC3COc4ccccc4C3)cnc12 (stereo not given) | 1.6 | 0.0
CCOC(=O)[C@H]1C[C@]2(CCCCN(CCOC)C2=O)N(C(=O)c2ccco2)[C@H]1c1ccccc1 | 0.5 | 2.3
Cc1nc(CN(CCC#N)Cc2ccco2)nc2ccccc12 | 2.4 | 3.1
COCCOCc1cccc(Br)c1 | 2.4 | 0.4
COc1ccc(C(=O)N2CCCC(Nc3ccc(C(C)C)cc3)C2)cc1F (stereo not given) | 5.5 | 5.8
COc1ccc(C2CC(=O)C3C(=Nc4ccccc4NC3c3coc4ccccc4c3=O)C2)cc1 (stereo not given) | -8.9 | -15.1
CC(C)c1cc(C(=O)N2CCC(O)(CO)CC2)cs1 | 5.3 | -5.8
CC(NC(=O)C1(c2ccc(Br)cc2)CC1)c1cccs1 (stereo not given) | 1.4 | -0.8
N#CCn1c(CN2CCC3CCCCC3C2)nc2scc(-c3ccccc3)c2c1=O (stereo not given) | 4.6 | 10.0
CCOC(=O)C1=C(C)N=c2sc(=Cc3ccc4c(c3)OCO4)c(=O)n2C1c1cccc([N+](=O)[O-])c1 (stereo not given) | -7.3 | -12.0
Nc1ccc(C(=O)c2ccccc2)cc1[N+](=O)[O-] | -3.2 | -5.8
CC(C)(C)OC(=O)C#Cc1ccc(Br)cc1 | 12.6 | 15.5

Part of the list above, with two lines to a compound:
Fields: NPYLR7 ag	NPYLR7 ag max-min
CC(C)(C)OC(=O)C#Cc1ccc(Br)cc1
    12.6	15.5
N#CCn1c(CN2CCC3CCCCC3C2)nc2scc(-c3ccccc3)c2c1=O (stereo not given)
    4.6	10.0
COc1cccc(C(=O)CSc2nnc(C3CC3)n2-c2ccc(C)cc2)c1
    -2.5	-1.0
CCOC(=O)C1=C(C)N=c2sc(=Cc3ccc4c(c3)OCO4)c(=O)n2C1c1cccc([N+](=O)[O-])c1 (stereo not given)
    -7.3	-12.0
Cc1nccc(C(=O)Nc2ccc3c(c2)CCCN3C)n1
    -19.0	-20.8
Cc1cc(C)n2nc(SCc3cc4c(cc3Br)OCO4)nc2n1
    0.6	3.5
Cc1nc(CN(CCC#N)Cc2ccco2)nc2ccccc12
    2.4	3.1

(listing goes on)
SMILES | NPYLR7 ag | NPYLR7 ag max-min
Cc1cccc(N(CCC#N)C(=O)CN2CCC(c3ccccc3)C2)c1C (stereo not given) | 14.4 | 9.2
Cn1nnnc1SCC(=O)N(c1ccccc1)C1CCCCC1 | -6.7 | -5.8
CCOC(=O)c1c(NC(=O)CSc2nnnn2-c2ccccc2)sc(C)c1C | -6.7 | -13.5
O=C(c1ccccc1)N1N=C2CCCCC2C12CCCCC2 (stereo not given) | 0.9 | 0.3
CC(C)CCC(=O)NCc1ccc(C(=O)NCCN2CCCC2)cc1 | 25.1 | 16.0
Clc1ccccc1Oc1cc(N2CCC(Cc3ccccc3)CC2)ncn1 | -1.8 | -1.4
Cc1ccc2oc(CN(C(=O)c3ccc(Cl)cc3Cl)C3CCCCC3)nc2c1 | 1.0 | -4.1
CC(Nc1ccc(OCC(F)(F)F)cc1)C(=O)Nc1ccc(Cl)cn1 (stereo not given) | -1.1 | -3.7
Cc1onc(-c2ccccc2Cl)c1C(=O)NC12CC3(C)CC(C)(CC(C)(C3)C1)C2 | -10.3 | -14.1
N#CC1(c2ccccc2)CCN(C(=O)C2CCCCC2C(=O)NCCc2ccccc2F)CC1 (stereo not given) | -8.0 | -12.0
O=C(N[C@H](Cc1ccccc1)C(=O)N1CCC(C(=O)N2CCCCC2)CC1)C(Cl)Cl | 20.2 | 19.4
CCn1nccc1NC(=O)c1ccc(Oc2ccccc2)cc1 | -5.8 | -5.9
Cc1c(NCc2cccnc2)cccc1C(=O)NCc1ccccc1Cl | 13.7 | 0.0
COc1cccc(OCc2cc(C(=O)N3CCN(C(C)=O)CC3)no2)c1 | 3.9 | 2.7
CCC(CC)N1CCCC1C(=O)Nc1cccc(-n2cnnn2)c1 (stereo not given) | -0.3 | -3.7
CCN1C(=O)/C(=C/C=C2/Sc3ccccc3N2CC)SC1=Nc1ccc2ncccc2c1 | -4.3 | -8.4
CCCc1nn(-c2ccc([N+](=O)[O-])cc2)c(C)c1C(=O)NCCN(C)C | -4.2 | 2.4
CC(=O)N(Cc1ccccc1)c1c(N)nc(N)[nH]c1=O | 5.9 | 2.4
C=CCN(Cc1ccccn1)Cc1cn[nH]c1-c1ccc(F)cc1 | 7.6 | 8.3
CCC(C)c1cc(-c2cc(N)n[nH]2)ccc1OCc1ccccc1 (stereo not given) | -2.9 | -3.4
CC(=O)Nc1ccc(Cl)c(C(=O)N2CC[C@@H]3CC[C@H](C2)N3C)c1 | 0.9 | -4.7
CC12CCC3(C)OCC(COC(=O)Nc4ccccc4)(CO1)N23 (stereo not given) | 42.3 | 34.3
COC(=O)N1CCN2C[C@@H](CO)[C@H](c3ccccc3)[C@H]2C1 | -4.6 | 1.5
CCN(CC)CCn1c2c(c(SCC(=O)Nc3ccccc3C)nc1=O)CCC2 | -2.5 | -5.5
CCCN(CC1CC(c2ccc(F)cc2)=NO1)C(=O)NCC (stereo not given) | -2.2 | 0.6
Cc1cc(NC(=O)CN2CCN(c3ccccc3Cl)CC2)no1 | 6.7 | 2.5
Cc1oc(-c2ccccc2Cl)nc1CN1CCN(c2nc3ccccc3s2)CC1 | -9.1 | -12.6
CS(=O)(=O)NCCC(=O)Nc1ccccc1N1CCc2ccccc21 | -6.4 | -7.5
Cc1cc(C)n(CCNc2ncnc3sc(C)c(C)c23)c(=O)n1 | 2.9 | 3.6
CC(N)=C(C#N)C(=O)COC(=O)c1cc2c(s1)CCC(C)C2 (stereo not given) | 0.1 | -0.3
FC(F)(F)C1CN(Cc2nnc(C3CC3)o2)CCO1 (stereo not given) | 8.7 | 8.9
CCc1[nH]n(-c2ccc(Cl)c(Cl)c2)c(=O)c1C1=C([n+]2ccc(C)cc2)C(=O)N(C(C)C)C1=O | -7.9 | 3.2
CCOC(=O)C1CCCN(C(=O)c2nn(-c3ccc(Cl)cc3)c(=O)n(C(C)c3ccccc3)c2=O)C1 (stereo not given) | 12.1 | 12.9
COc1ccc(C(=O)NC2CCN(c3ccccc3C(=O)N3CCc4ccccc4C3)CC2)cc1 | 0.1 | 6.4
CN1[C@H]2CC[C@@H]1CN(C(=O)Cn1cc3ccccc3n1)CC2 | 0.6 | 2.3
CCSCCNC(=O)c1cc(N2CCCC(C)C2)nc2ccccc12 (stereo not given) | 12.6 | 6.8
Cc1nc(C2CC2)nc(Sc2ccc(Br)cc2)c1F | 7.8 | 3.9
CSCCC1NC(=O)N(Cc2c(C)noc2C)C1=O (stereo not given) | 3.8 | 1.3
CN(C)c1ccc(C2=NOC(CN(Cc3cccc(Cl)c3)C(=O)c3cccc(F)c3)C2)cc1 (stereo not given) | 18.7 | 26.2
OCCC1CN(Cc2cc3ccccc3o2)CCN1CCc1ccccc1 (stereo not given) | 7.5 | 6.1
CCOC(=O)CC1C(=O)NCCN1C(=O)CSc1ccc(C(F)(F)F)cn1 (stereo not given) | -7.4 | -14.9
FC(F)(F)C1CN(c2nc(-c3ccccc3)cs2)CCO1 (stereo not given) | 2.6 | 1.0
COc1ccc(CCN(C)c2cc(Cl)nc(SCC(=O)NC(Cc3ccccc3)c3ccccc3)n2)cc1OC (stereo not given) | -5.5 | -7.1
Cc1cc(N(CCC#N)C(=O)CN2C(=O)c3ccccc3S2(=O)=O)ccc1Cl | 4.7 | 2.3
Cn1cc(CN2CCCC(CNC(=O)C3(c4ccc(Cl)cc4)CC3)C2)cn1 (stereo not given) | -5.1 | -5.7
O=S(=O)(NC1CC2CCC1C2)c1ccc(Cl)cc1 (stereo not given) | 0.6 | -1.8
Fc1cccc(-c2[nH]ncc2-c2nnnn2-c2ccc(Cl)cc2)c1 | 5.5 | 5.6
O=c1cc(C(F)(F)F)oc2ccc(Cl)cc12 | 1.3 | 7.0
Cc1cc(Cl)cc2c3c([nH]c12)CCC(NC(=O)C1(c2ccccc2)CC1)C3 (stereo not given) | 22.7 | 12.3
COC(=O)C1=C(C(=O)OC)C2C=CC=C(c3ccccc3)N2C(C(=O)OC)=C1C(=O)OC (stereo not given) | 3.9 | 7.9
Cc1n[nH]c(=O)c2c1cnn2-c1ccccc1 | -3.3 | -4.9
CC(C)=CC(=O)NC1CC2CCC(C1)N2Cc1ccoc1 (stereo not given) | -0.5 | 8.1
COc1ccc(-c2csc3nc(CN(Cc4ccccc4)CC(O)COCC(C)C)[nH]c(=O)c23)cc1OC (stereo not given) | -2.1 | 7.6
O=C(Nc1ccc2[nH]c(=O)[nH]c2c1)c1cc2c(s1)CCCCC2 | -2.6 | -3.5
Cc1nonc1CN(C)Cc1cn[nH]c1-c1ccc(-c2ccccc2)cc1 | 14.9 | 9.7
c1ccc(Cn2cc(CN3CCCC3c3ccccn3)c(-c3ccc4c(c3)OCO4)n2)cc1 (stereo not given) | -0.6 | -2.6
CC(=O)N1c2ccc(S(=O)(=O)Oc3ccccc3C#N)cc2CC1C (stereo not given) | 6.0 | 4.9
COc1ccc(N2CCN(c3cc(C(=O)NCCCSC)c4ccccc4n3)CC2)cc1 | 28.6 | 28.4
COc1ccc(-c2noc(CN3C(=O)CC4(CCCCC4)C3=O)n2)c(OC)c1 | 5.9 | 4.4
O=C(NCc1ccccn1)c1ccc(Nc2cccc(C(F)(F)F)c2)nc1 | 0.4 | -5.6
CC1Sc2ccccc2N(Cc2ccccc2OC(F)(F)F)C1=O (stereo not given) | 7.2 | 3.8
c1ccc(-c2cnc(CSc3nc4ccccc4o3)o2)cc1 | 5.7 | 7.1
CCO[C@H]1COC[C@@H]1NC(=O)c1onc2ccccc12 | 26.8 | 14.6
